Screens: PubChem, ICCB-Longwood Screening Facility, Harvard Medical School
Sa helicase inh = blocks Staphylococcus aureus DNA helicase; purified S. aureus helicase, fluorescence unwinding assay; about half of the hits fall short of the stated cut; inhibition, %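 (tested at about 80 µM)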; AID 485395; 0.05% of 120,000 active;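 active means both duplicates at 50% or more, or one of them with a favoured structure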;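 further: 0% = mean of negative control wells and 100% = mean of positive control wells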
MgrA-DNA mod = modulators of Staphylococcus aureus MgrA DNA binding. AID 602314. 0.13% of 84,000 active. inhibition, %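 (about 10 µg/mL by stock and volumes)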. fluorescence polarization;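 active means above 50% in either of two replicates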;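 further: 0% = protein plus DNA without compound and 100% = DNA alone without protein; higher means less MgrA bound to DNA so lower polarization; one replicate is shown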
The depositor's hits bear a star; · = not tested or not shown; & = joins results of further samples.

The line under a structure holds: Sa helicase inh | MgrA-DNA mod
- Cc1cccc(Nc2nc3nonc3nc2Nc2cccc(C)c2C)c1C
 : -1 | 0.0
- CCOc1cc(C2C(C(=O)OCc3ccccc3)=C(C)NC3=C2C(=O)CCC3)cc(Br)c1O (stereo not given)
 : · | -0.7
- O=C(O)CSC(SCC(=O)O)c1cccs1
 : · | 1.0
- COc1ccc(NC(=O)CSc2nc3ccncc3[nH]2)cc1
 : -13 | ·
- CCc1nc(N)c(C#N)c(-c2ccccc2)c1C
 : -4 | -0.8
- CCn1cc(C(=O)Nc2ccccc2Br)c(=O)c2cc(F)c(N3CCN(C(C)=O)CC3)cc21
 : -3 | ·
- CCN(CC)c1nc(SCCOC(=O)Nc2ccccc2)nc(N(CC)CC)n1
 : -28 | ·
- Cc1cccc(Nc2ccncc2S(=O)(=O)NC(=O)NC(C)C)c1
 : · | -2.0&0.1
- Cc1ccc(NC(=O)CN2C(=O)OC(C)(C)C2(C)O)cc1 (stereo not given)
 : 15 | ·
- CN(C(=O)COC(=O)c1cnc(Cl)c(Cl)c1)c1ccccc1
 : -15 | -2.4
- O=C(Oc1ccc(-c2nnco2)cc1)C1=CC=CN2CCS(=O)(=O)N=C12
 : 11 | ·
- CCCN(CC1CC1)C(=S)Nc1cccc(C)c1C
 : 0 | 1.4
- COc1ccc(N=c2oc3ccccc3cc2C(=O)Nc2ccccc2OC)cc1
 : · | -1.9
- CCNc1ccc(OC)cc1
 : 8 | ·
- CC1OS(=O)OC1(c1ccccc1)c1ccccc1 (stereo not given)
 : 8 | -1.0
- Cc1ccc2nc(SCc3ccccc3C#N)[nH]c2c1
 : 1 | 2.1
- COc1ccc(NC(=O)C(CC(C)C)NS(=O)(=O)c2ccc3c(c2)oc(=O)n3C)cc1 (stereo not given)
 : -14 | ·
- NC1=NC(=O)CC(C(=O)Nc2ccc(Br)cc2)S1 (stereo not given)
 : -10 | -0.1
- O=C(O)CCCc1ccc(/C=N/O)s1
 : 8 | 0.2
- O=C(Cc1ccccc1)Nc1ccc(-c2cn3cccnc3n2)cc1
 : 3 | -1.5
- CC1OCN(c2ccc(OC(F)(F)F)cc2)Cn2c1nc1ccccc12 (stereo not given)
 : -20 | ·
- COc1cc2c(cc1OC)C1N(CC2)C(C(=O)c2cccs2)=NN1c1ccccc1 (stereo not given)
 : · | -2.5
- COC(=O)C1=CN(C23CC4CC(CC(C4)C2)C3)C=C(C(=O)OC)C1c1cccc(OC)c1
 : 11 | 2.5
- O=C(O)/C=C/C(=O)N1CCCC(C(F)(F)F)C1 (stereo not given)
 : -14 | ·
- CCC1CCC(N(CC)CCN(C)C)CC1 (stereo not given)
 : -10 | -2.4
- COc1cc(OC)cc(C(C)(C)OC(=O)N2CCC[C@H]2C(=O)O)c1
 : 17 | ·
- CCCCCCCCCCCCC/C=C/[C@@H](O)[C@@H](N)CO
 : · | -0.7
- COc1cccc(/C=C(\C#N)C(=O)c2ccc(C(C)(C)C)cc2)c1O
 : · | -0.9
- CC(=O)OCC(=O)C1CCC2C3CC=C4CC(O)CCC4(C)C3CCC12C (stereo not given)
 : 2 | ·
- NC(=S)NCCc1ccccc1
 : -7 | ·

Gathered by group, the entries above with a COOH group.
The line under a structure holds: Sa helicase inh | MgrA-DNA mod
- O=C(O)CSC(SCC(=O)O)c1cccs1
 : · | 1.0
- O=C(O)CCCc1ccc(/C=N/O)s1
 : 8 | 0.2
- O=C(O)/C=C/C(=O)N1CCCC(C(F)(F)F)C1 (stereo not given)
 : -14 | ·
- COc1cc(OC)cc(C(C)(C)OC(=O)N2CCC[C@H]2C(=O)O)c1
 : 17 | ·

Six of the entries above in order of the MgrA-DNA mod value, falling.
The line under a structure holds: Sa helicase inh | MgrA-DNA mod
- Cc1ccc2nc(SCc3ccccc3C#N)[nH]c2c1
 : 1 | 2.1
- NC1=NC(=O)CC(C(=O)Nc2ccc(Br)cc2)S1 (stereo not given)
 : -10 | -0.1
- CCCCCCCCCCCCC/C=C/[C@@H](O)[C@@H](N)CO
 : · | -0.7
- COc1cccc(/C=C(\C#N)C(=O)c2ccc(C(C)(C)C)cc2)c1O
 : · | -0.9
- O=C(Cc1ccccc1)Nc1ccc(-c2cn3cccnc3n2)cc1
 : 3 | -1.5
- CCC1CCC(N(CC)CCN(C)C)CC1 (stereo not given)
 : -10 | -2.4

Next records follow:
The line under a structure holds: Sa helicase inh | MgrA-DNA mod
- COC(=O)c1nn(C)c(=O)c2ccccc12
 : 0 | ·
- CCc1ccc(NC(=O)Cn2nc(CC)n3c(cc4cc(C)ccc43)c2=O)cc1
 : -16 | ·
- O=C(Nc1ccc(F)cc1)c1ccccc1NC(=S)Nc1ccccc1Cl
 : · | 1.3
- CN(C)c1cccc(N(C)C)c1CNC(=O)c1ccccc1Cl
 : · | -1.2
- CN1CCN(C2=NC(C(=O)Nc3ccccc3)CC(=O)N2)CC1 (stereo not given)
 : -22 | 0.8
- CCc1ccc(NC(=O)CCNS(=O)(=O)c2ccc3c(c2)CC(C)N3C(C)=O)cc1 (stereo not given)
 : -24 | ·
- Cc1nn(-c2ccccc2)c2sc(C(=O)NCc3cccnc3)cc12
 : 10 | ·
- CC(C)c1ccc(NC(=S)N2CCCC(c3ccc(F)cc3)=N2)cc1
 : · | -1.0
- O=C(CSCC(=O)N1CCCCC1)Nc1nc(-c2cccs2)cs1
 : 21 | ·
- CC(Sc1nc(N)cc(=O)[nH]1)C(=O)Nc1nc2ccccc2s1 (stereo not given)
 : -1 | -1.2
- Cc1nc(C(F)(F)F)ccc1-c1nnc(SCCCN2C(=O)c3ccccc3C2=O)o1
 : · | 1.0
- Cc1nc2sc(-c3ccccc3)cc2c(=O)o1
 : · | 0.1
- NN1C(=O)CSC1=Nc1ccccc1
 : 4 | 0.7
- CC1CCC(NC(=O)CSc2ccc(S(=O)(=O)N(C)C)cn2)CC1 (stereo not given)
 : -7 | ·
- Cc1ccc(-c2noc(CN(C)C(=O)CCN3C(=O)C4CC=CCC4C3=O)n2)cc1 (stereo not given)
 : -16 | 2.0
- CCOc1ccc(-n2c(=O)[nH]c3sc4c(c3c2=O)CCC4)cc1
 : 9 | ·
- Cc1cccc(C)c1NC(=O)CS(=O)CC(=O)Nc1ccc(F)c(F)c1 (stereo not given)
 : 5 | -0.8
- COc1ccc(-n2nc(C(=O)N(C)c3ccc(OC)cc3OC)c3c4ccccc4n(C)c3c2=O)cc1
 : 10 | ·
- O=C(CSc1c(-c2ccccc2)c2cc(Cl)ccc2[nH]c1=O)N1CCCCC1
 : 6 | ·
- Cc1cc2oc(=O)cc(Cn3nnc(-c4ccc(F)cc4)n3)c2cc1C
 : 0 | ·
- O=S1(=O)CCC(SSC2CCS(=O)(=O)C2)C1 (stereo not given)
 : 5 | ·
- O=C(CSc1nnc(-c2ccccn2)c(-c2ccccn2)n1)c1ccc(N2CCCC2=O)cc1
 : 1 | 0.1
- O=C(c1cnn2c(C(F)(F)F)cc(-c3ccccc3)nc12)N1CCN(c2ccccc2)CC1
 : 1 | ·
- Cc1ccc2nc(-c3ccc(S(=O)(=O)N(C)C)cc3)cn2c1
 : 14 | 1.4
- CCCc1nc(N)c(C#N)c(-c2ccc(F)cc2)c1CC
 : 1 | -0.3
- CC(=O)Nc1ccc(NC(=O)C(Cc2ccccc2)NC(=O)C2CCCCC2)cc1 (stereo not given)
 : 2 | -2.5
- c1ccc(COC2CCNCC2)cc1
 : 7 | -5.2
- Cc1cc(C)n2ncc(C(=O)NCCC3=CCCCC3)c2n1
 : 10 | ·
- CNC(=O)c1ccsc1NC(=O)c1ccc(S(C)(=O)=O)cc1
 : -2 | ·
- O=C(O)C(Cc1cnc[nH]1)N1C(=O)C2C3c4ccccc4C(c4ccccc43)C2C1=O (stereo not given)
 : 9 | ·

(list continues)
SMILES,Sa helicase inh,MgrA-DNA mod
O=C1OCCC1Sc1ncnc2ccccc12 (stereo not given),-8,·
Cc1ccc(S(=O)(=O)Nc2ccc(-c3csc(-c4ccccc4)n3)cc2)cc1,7,2.8
O=C(NCCC1=CCCCC1)c1cnsn1,-5,-0.1
NCCCCCc1nnc(SCC(N)=O)o1,19,-2.2
CC1(C)NCS[C@H]1C(=O)O,·,0.0
CC(=O)c1cc(F)ccc1OC(=O)c1c(-c2c(Cl)cccc2Cl)noc1C,·,-2.6
CCC(C(=O)N1CCCC1)n1nc(C)n2c(cc3occc32)c1=O (stereo not given),8,·
O=C(CC1N=C2c3ccccc3N=C(SCc3ccccc3F)N2C1=O)NC1CCCCC1 (stereo not given),-6,2.0
CN1CC=C(/C=C/C2=CC[C@H]3C[C@@H]2C3(C)C)CC1,6,-1.9
CC(CCc1ccccc1)NC(=O)CCn1c(=O)sc2ccccc21 (stereo not given),9,·
N#CC1=C(SCC(=O)Nc2ccc(Br)cc2)NC(=O)CC1c1cccc2ccccc12 (stereo not given),·,0.8
CC1CC(C)CN(c2c3c(nc4cc(-c5ccc(F)cc5)nn24)CCC3)C1 (stereo not given),7,-0.8
CCc1ccc(N(CC)c2ncnc3nc[nH]c23)cc1,23,·
CCOC(=O)c1c(C=O)oc2c(C)cc(OC(=O)c3cc(Cl)cc(Cl)c3)c(Br)c12,·,-0.7
CN(C)CCC(O)c1ccccc1 (stereo not given),7,·
O=c1cc(C(F)(F)F)c2cc(Cl)c(O)cc2o1,·,17
COc1cccc2[nH]ccc12,-28,·
Clc1ccc(OCc2ccc(-c3csnn3)cc2)cc1,·,0.4
O=S(=O)(N=S(N1CCCCC1)N1CCCCC1)c1ccccc1,0,·
c1ccc(Nc2nc(-c3ccncc3)cs2)cc1,-7,2.5
CC(=O)c1ccc(Oc2ccc(Cl)cc2Cl)cc1,·,1.3
Cc1cc(C(=O)N2CCC(C)CC2)c(C)n1-c1ccc(F)cc1,23,·
CN(CCOc1ccccc1)CCOc1ccccc1,-11,·
S=c1nc[nH]c2c1sc1nc(N3CCOCC3)c3c(c12)CCCC3,2,1.5
O=C(NC(N1CCOCC1)(C(F)(F)F)C(F)(F)F)c1ccccc1,2,1.9
CCCNC(=O)c1ccc(OCC)cc1,-3,-0.9
N#Cc1c(-c2ccccc2)oc2c1C(=O)c1ccccc1C2=O,5,1.2
CC1(C)CC(=O)C(N=Nc2ccccc2C(F)(F)F)=C(O)C1,6,·
O=C(COC(=O)c1ccc(Oc2ccccc2)cc1)NCc1ccccc1,-16,0.1
CCCCc1ncc(CO)[nH]1,·,-1.4
CCN(Cc1ccccc1)C(=O)CSc1nc2ccccc2c2nc3ccccc3n12,11,-0.2
CC(C)(C)NS(=O)(=O)c1ccc(N2C(=O)CC3(CCCC3)C2=O)c(Cl)c1,·,-1.9
CC(C)c1ccc(NC(=O)c2cc(F)cc3c2OCOC3)cc1,·,-0.2
O=S(=O)(NCCSc1ccccc1)c1ccc2c(c1)OCCO2,2,-0.4
Cc1ccc2cc(CN(Cc3ccccc3)S(C)(=O)=O)c(=O)[nH]c2c1,7,4.7
CC(C)N(Cc1nnc(-c2ccc(Cl)cc2)o1)C(=O)C1COc2ccccc2O1 (stereo not given),-4,·
COc1ccccc1N(Cc1cc2ccccc2[nH]c1=O)C(=O)C(C)(C)C,8,-2.2
CC(=O)N1CCN(C(=O)c2sccc2-c2ccccc2)CC1,33,·
Cc1nc2ccc(Br)cc2c(C(=O)O)c1I,·,1.8
O=C(NCc1cccc2ccccc12)C12CC3CC(CC(C3)C1)C2,-3,1.1
N#CC1(c2ccccc2)CCCN1C(=O)c1ccc(Br)o1 (stereo not given),13,-1.2
CCC1CCC(=NNC(=O)CNc2ccc(OC)cc2)CC1 (stereo not given),-7,·
C#CCOC(=O)Nc1ccc(OCC(F)(F)F)nc1,-10,·
O=C(Cn1c(=O)oc2ccccc21)NC1CCN(Cc2ccccc2)CC1,-1,·
CC1(NCC(=O)N2CCN(S(=O)(=O)c3ccc4ccccc4c3)CC2)CCS(=O)(=O)C1 (stereo not given),5,·
CC1SC2(C(=O)Nc3ccccc32)N(c2ccccc2)C1=O (stereo not given),12,-1.6
CCCN(CCC)S(=O)(=O)c1ccc2c(c1)CCN2C(=O)CC,33,·
CC(NC(=O)C(C)(C)C)C1CC2CCC1C2 (stereo not given),-5,·
Cc1nc(-c2ccc3c(c2)CCC(=O)N3)cs1,·,-4.1
C=CC(=O)Nc1ccc(-c2nc3ccc(NC(=O)C=C)cc3[nH]2)cc1,4,·

Later entries:
SMILES,Sa helicase inh,MgrA-DNA mod
O=S(=O)(NNc1c(Cl)cc(Cl)cc1Cl)c1ccc(Cl)c(Cl)c1,·,0.7
CCOC(=O)N1CCc2[nH]c3ccccc3c2C1,13,9.1
Cc1ccc(-c2noc(CCC(=O)N3CCCCC3)n2)cc1,-2,·
Cn1c(C(C#N)C(=O)Cc2c(F)cccc2Cl)nc2ccccc21 (stereo not given),37,·
CN(C)C(=S)SCN1CCCCCC1=O,0,·
CC1=NN(Cc2ccccc2Cl)C(=O)C1,15,·
COc1ccc(/C=C2\SC(=S)N(c3ccc(O)cc3)C2=O)cc1,-17,·
CN1CCC[C@@H]1CCO[C@](C)(c1ccccc1)c1ccc(Cl)cc1,·,-4.2&-0.3
Fc1ccc(-c2[nH]ncc2CN2CCN(Cc3ccccc3)CC2)cc1,·,1.2
O=C(CN1CCC(C(=O)Nc2ccccc2)CC1)NN1C(=O)NC2(CCCCC2)C1=O,20,·
COc1ccc2c(c1)C(C)=CC(C)(C)N2C(=O)CN1C(=O)CCC1=O,-13,0.5
CC(NC(=O)c1ccccc1)c1n[nH]c(=S)n1C (stereo not given),10,-3.9
c1ccc(-c2nnn3c2nc(N2CCCC2)c2ccccc23)cc1,-2,0.8
Cc1ccc2c(COC(=O)c3nc(-c4ccccc4)oc3C)cc(=O)oc2c1,5,·
COc1cc2c(cc1OC)NC(=O)C2,·,-2.9
Cc1ccc(/C=C2/Sc3ccc(C(=O)N4CCN(c5ccccc5F)CC4)cc3NC2=O)cc1,12,1.8
O=c1[nH]c2cc3c(cc2cc1CN(CCO)C(=S)Nc1cccc(Cl)c1)OCO3,5,-1.9
COc1ccc(NCc2nnc3n2CCCCC3)cc1,13,·
CCCNC(=O)c1ccc(-n2c(C)cc3c2CCCC3)cc1,-18,1.8

The list is partial; count on the stated rates, not on these rows.
